# Biofilm kill mix = mixture kills Candida albicans biofilm cells; C. albicans biofilm persisters + clotrimazole, fluorescence viability; primary screen in compound mixtures of four per well; inhibition, % at 7.6 µM; 120,000 tested, 0.02% active; AID 1242;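 active = inhibition above 30.3% in the primary screen of four-compound pools, then above 30% when the compound was retested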;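 also: compounds exposed to preformed 24 h biofilms for 48 h; the number belongs to the whole pool; some results filed as inactive read as strong as hits; inactives centre near 12; 0% = biofilm with clotrimazole alone and 100% = kill control; retested singly at about 60 µM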
#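 Test system: C. albicans CAF4-2 wild-type biofilms; buffer or medium: RPMI/MOPS medium, pH 7.0; schedule: 24 h biofilm formation, then 48 h compound exposure, 37 °C; detection: Alamar Blue fluorescence; measure: percent inhibition of biofilm viability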
# An asterisk follows results filed as active; & = joins results of further samples. The list is partial (hit frequency here may not be typical).
# The first 7 compounds, to show the layout:
Cc1ccc(CC(=O)NCCS(=O)c2ccc(C)cc2)cc1 (stereo not given)
  Biofilm kill mix: 3.3
Cc1ccc(/C=C/C(=O)N(Cc2cccs2)C2CCS(=O)(=O)C2)cc1 (stereo not given)
  Biofilm kill mix: 23.3
CC(C)CC(NC(=O)C(CC(C)C)NC(=O)OC(C)(C)C)C(N)=O (stereo not given)
  Biofilm kill mix: 18.5
CCc1cccc(CC)c1NC(=O)CO/N=C(\C)c1cccs1
  Biofilm kill mix: 10.3
CCOc1ccc(-n2c(SCC(=O)Nc3ccccc3CC)nc3n[nH]c(C)c3c2=N)cc1
  Biofilm kill mix: 18.6
CCC(CC)C(=O)NCc1cccnc1
  Biofilm kill mix: 15.0
COc1cccc(NC(=O)CN2CCSc3ccccc32)c1
  Biofilm kill mix: -14.4

# All compounds of this part, from the first entry:
Cc1ccc(CC(=O)NCCS(=O)c2ccc(C)cc2)cc1 (stereo not given)
  Biofilm kill mix: 3.3
Cc1ccc(/C=C/C(=O)N(Cc2cccs2)C2CCS(=O)(=O)C2)cc1 (stereo not given)
  Biofilm kill mix: 23.3
CC(C)CC(NC(=O)C(CC(C)C)NC(=O)OC(C)(C)C)C(N)=O (stereo not given)
  Biofilm kill mix: 18.5
CCc1cccc(CC)c1NC(=O)CO/N=C(\C)c1cccs1
  Biofilm kill mix: 10.3
CCOc1ccc(-n2c(SCC(=O)Nc3ccccc3CC)nc3n[nH]c(C)c3c2=N)cc1
  Biofilm kill mix: 18.6
CCC(CC)C(=O)NCc1cccnc1
  Biofilm kill mix: 15.0
COc1cccc(NC(=O)CN2CCSc3ccccc32)c1
  Biofilm kill mix: -14.4
COC(=O)c1cc(=O)n(Cc2cccs2)c(=Nc2ccccc2)s1
  Biofilm kill mix: 19.6
Cc1ccc(C#N)c(SCC(=O)Nc2nccs2)n1
  Biofilm kill mix: -11.6
COc1ccc(CN2CCCC(C(=O)c3cccc(C(F)(F)F)c3)C2)cc1O (stereo not given)
  Biofilm kill mix: 12.1
Cc1c(C(=O)/C=C/N(C)C)nnn1-c1ccc(Cl)cc1C#N
  Biofilm kill mix: 18.9
C/C(=N\NC(=O)c1cc(C)[nH]n1)c1cccs1
  Biofilm kill mix: 8.7
COc1cccc(C(=O)NCc2ccc3c(c2)cc(C)n3C)c1
  Biofilm kill mix: 6.0
Cc1scc(C(=O)N/N=C/c2ccsc2)c1C
  Biofilm kill mix: 5.3
CCCC(=O)Nc1ccc(Cl)c(NC(=S)NC(=O)c2ccco2)c1
  Biofilm kill mix: 10.6

COc1cccc(-c2nnn(C/C(N)=N/O)n2)c1
  Biofilm kill mix: -9.1
COc1ccc(/C=C/C2=NN(Cc3ccccc3)C(=O)CC2)cc1
  Biofilm kill mix: 24.0
CCCOc1ccc(S(=O)(=O)N2C(=O)CC(=O)N(Cc3ccc(OCC)cc3)C2=O)cc1
  Biofilm kill mix: 20.1
Cc1ccc(-n2nc3ccc(NC(=O)c4cccc([N+](=O)[O-])c4C)cc3n2)cc1
  Biofilm kill mix: 8.5
Fc1ccc(NC(=S)NCc2cccnc2)cc1
  Biofilm kill mix: -3.0
CCOC(=O)CC(NC(=O)CCc1c(C)nc2nc(C)nn2c1C)c1ccc(C)cc1 (stereo not given)
  Biofilm kill mix: 7.0
Cc1nc([N+](=O)[O-])c(C(=O)OCc2ccccc2Br)n1C
  Biofilm kill mix: 9.8
COc1cccc(-c2nnc(-c3ccccc3NC(=O)c3ccc(C(C)(C)C)cc3)o2)c1
  Biofilm kill mix: 16.3
CC(=O)Nc1cccc(NC(=O)c2ccc(C)c([N+](=O)[O-])c2)c1
  Biofilm kill mix: 4.8
O=C1NC(Cc2c[nH]c3ccccc23)C(=O)N1Cc1ccc(CN2C(=O)NC(Cc3c[nH]c4ccccc34)C2=O)cc1 (stereo not given)
  Biofilm kill mix: -3.2
O=C(O)CNC(=O)/C(=C/c1cccc([N+](=O)[O-])c1)NC(=O)c1ccco1
  Biofilm kill mix: 17.9
COc1ccccc1-c1n[nH]c(=S)n1Cc1ccco1
  Biofilm kill mix: 13.9
O=C(N/N=C/c1ccc2c(c1)OCO2)C(=O)Nc1ccccc1
  Biofilm kill mix: 3.6
Cc1ccc(S(=O)(=O)N2CCN(C(=O)c3cccs3)CC2)cc1
  Biofilm kill mix: 15.3
N#CCCN(C(=O)Nc1ccc(Cl)c(Cl)c1)c1ccccc1
  Biofilm kill mix: 3.7

Cc1ccc2[nH]c(C(=O)O)c(NC(=O)[C@@H]3C[C@@H]3c3ccccc3)c2c1
  Biofilm kill mix: 32.8
Cc1cc(C)n(-c2ccc(C(=O)Nc3cccnc3)cc2)n1
  Biofilm kill mix: 14.9
O=C(COC(=O)c1cc(Br)ccc1Cl)NC1CC1
  Biofilm kill mix: 14.5
C=CCn1c(-c2ccccc2[N+](=O)[O-])n[nH]c1=S
  Biofilm kill mix: 12.2
CCC(=O)N1CCN(c2nc(-c3ccc(Cl)cc3)cs2)CC1
  Biofilm kill mix: 8.1
CC(C)NC(=O)CC1C(=O)N(Cc2ccccc2)C(C)c2nc3ccccc3n21 (stereo not given)
  Biofilm kill mix: 16.2
COc1ccc(/C=N/NC(=O)CC(=O)N/N=C/c2ccc(OC)cc2)cc1
  Biofilm kill mix: 15.0
CCCNS(=O)(=O)c1ccc(OCC(=O)N2CCCC2)cc1
  Biofilm kill mix: -8.7
COC(=O)c1c(N2C(=O)[C@H]3[C@@H](C2=O)[C@]2(C(=O)Nc4c2ccc(C)c4C)N2CCC[C@@H]32)sc(C)c1C
  Biofilm kill mix: 18.4
Cc1ccc(CNC(=O)c2cncc(Br)c2)cc1
  Biofilm kill mix: 8.1
COc1ccc(-c2cc(C)nc3c(-c4ccccc4)cnn23)cc1
  Biofilm kill mix: 1.8
O=C(C1CCCO1)N1CCN(C(=S)Nc2ccccc2)CC1 (stereo not given)
  Biofilm kill mix: -6.5
COc1ccccc1N1N=C(c2cccs2)CC1c1ccccc1 (stereo not given)
  Biofilm kill mix: 6.8
Cc1nc2ccc(NC(=O)c3cc(S(=O)(=O)N(C)c4ccccc4)ccc3Cl)cc2s1
  Biofilm kill mix: 8.9
CC(=O)N(C)c1ccc(C(O)(C(F)(F)F)C(F)(F)F)cc1
  Biofilm kill mix: 27.3

CC(C)c1ccc(NC(=S)NNc2ccc(Cl)c(C(=O)O)c2)cc1
  Biofilm kill mix: 20.4
OCCNc1nc(N2CCCC2)nc(N2CCCC2)n1
  Biofilm kill mix: 8.9
CC(C)=CCN1CCN(Cc2ccc3nsnc3c2)CC1CCO (stereo not given)
  Biofilm kill mix: 12.4
CCCS(=O)(=O)c1c(S(=O)(=O)CCC)c2cc(-c3ccncc3)ccn2c1C(=O)OC
  Biofilm kill mix: 4.8
C/C(N)=C(/C#N)C(=O)CSc1nc2cc(Cl)ccc2c(=O)n1-c1ccc(C)cc1
  Biofilm kill mix: 2.9
O=C(N/N=C/c1cccnc1)C(=O)N1CCCCCC1
  Biofilm kill mix: 14.5
COC(=O)c1cc(OC)c(OC)cc1NC(=S)N1CCN(c2ccccn2)CC1
  Biofilm kill mix: 5.5
COc1ccc(/C=N/NC(=O)c2[nH]c(C)c(C(=O)N/N=C/c3ccc(OC)cc3)c2C)cc1
  Biofilm kill mix: 5.3
CCOc1ccc(CN2C(=O)c3ccccc3C2C(=O)NCC2CCCO2)cc1 (stereo not given)
  Biofilm kill mix: -3.5
CC1(C)NC(=O)N(CC(O)Cn2c3ccccc3c3ccccc32)C1=O (stereo not given)
  Biofilm kill mix: 10.8
Cn1c(SCC(=O)c2c(N)n(C)c(=O)n(C)c2=O)nnc1-c1ccccc1F
  Biofilm kill mix: -5.3
CC(C)CCNC(=O)CN(C(=O)CCC(=O)Nc1ccccn1)c1ccc(F)c(Cl)c1
  Biofilm kill mix: 7.8
CC12CCC(C(=O)NC3CCCCC3)([C@H](Br)C1=O)C2(C)C (stereo not given in full)
  Biofilm kill mix: 13.7
NC(=O)CC(NC(=O)c1cccc(Br)c1)c1ccc(N2CCC(N3CCCC3)CC2)c([N+](=O)[O-])c1 (stereo not given)
  Biofilm kill mix: 14.0
COc1ccccc1C(=O)Nc1ccc(-c2nnn(CC(=O)N3CCN(C(=O)c4ccco4)CC3)n2)cc1
  Biofilm kill mix: 19.6

O=S(=O)(Nc1cccc(-c2cn3cccnc3n2)c1)c1ccc(F)cc1
  Biofilm kill mix: 7.3
Cc1ccc(NC(=O)COC(=O)c2cccnc2)c(C)c1
  Biofilm kill mix: 7.5
COC/C=C/C1=CC2=CC(=O)C(C)(OC(=O)CCC(=O)OC)C(=O)C2=CO1 (stereo not given)
  Biofilm kill mix: 4.7
COc1ccc(CCNC(=O)CSc2ccc(-c3cccs3)nn2)cc1OC
  Biofilm kill mix: -2.4
Cc1ccc(-c2cccc(C3CC=CC4C3C(=O)N(Cc3ccccc3)C4c3ccc(C(F)(F)F)cc3)c2)cc1 (stereo not given)
  Biofilm kill mix: 14.1
CCCN1CCN(C(=S)Nc2ccc(S(N)(=O)=O)cc2)CC1
  Biofilm kill mix: 12.7
Cc1cccc(Nc2nnc(SC3CCOC3=O)s2)c1C (stereo not given)
  Biofilm kill mix: 9.6
Cc1sc2cc(-c3cccc([N+](=O)[O-])c3)c(-c3cccc([N+](=O)[O-])c3)c[n+]2c1C
  Biofilm kill mix: 12.4
Cc1cc(-c2cccc([N+](=O)[O-])c2)nc2ccccc12
  Biofilm kill mix: 10.7
CCCCOc1cc(C(=O)NCCN(CC)CC)c2ccccc2n1
  Biofilm kill mix: 9.4&11.6
O=C(COC(=O)c1ccc(Cl)nc1)NCCC1=CCCCC1
  Biofilm kill mix: 11.7
OCCN1CCN(c2cc(C(F)(F)F)nc3c(F)cccc23)CC1
  Biofilm kill mix: 21.5
Cc1ccc(OCC(=O)N(Cc2ccccc2)C2CCS(=O)(=O)C2)c([N+](=O)[O-])n1 (stereo not given)
  Biofilm kill mix: 6.8
COc1ccc(Nc2nc(NCCCN3CCOCC3)nc(N)c2[N+](=O)[O-])cc1
  Biofilm kill mix: 19.9
O=C(NNC(=O)C1CCCN(c2ncccn2)C1)c1ccncc1 (stereo not given)
  Biofilm kill mix: 28.6

# Compounds shown so far that contain a furan ring, fused or not (4):
CCCC(=O)Nc1ccc(Cl)c(NC(=S)NC(=O)c2ccco2)c1
  Biofilm kill mix: 10.6
O=C(O)CNC(=O)/C(=C/c1cccc([N+](=O)[O-])c1)NC(=O)c1ccco1
  Biofilm kill mix: 17.9
COc1ccccc1-c1n[nH]c(=S)n1Cc1ccco1
  Biofilm kill mix: 13.9
COc1ccccc1C(=O)Nc1ccc(-c2nnn(CC(=O)N3CCN(C(=O)c4ccco4)CC3)n2)cc1
  Biofilm kill mix: 19.6

# More results.
CCc1nc(SCC(=O)c2ccccc2)c2ccccc2n1
  Biofilm kill mix: 3.0
O=C(O)C1CCCN(S(=O)(=O)c2ccccc2)C1 (stereo not given)
  Biofilm kill mix: 8.2
O=C1CN(C(=O)COC(=O)c2cccnc2Cl)c2ccccc2N1
  Biofilm kill mix: 8.4
O=C(COC(=O)CCc1nc2ccccc2c(=O)[nH]1)NC(=O)NC1CCCC1
  Biofilm kill mix: 6.3
CCCc1ccc(OCc2ccc(C(=O)NCc3cccnc3)o2)c(OC)c1
  Biofilm kill mix: 19.1
O=C(O)/C=C/C(=O)Nc1ccc(Cl)c(C(=O)O)c1
  Biofilm kill mix: 13.3
COc1cc(NC(=O)c2cccs2)ccc1NC(=O)c1ccccc1Cl
  Biofilm kill mix: 10.8
Cc1nn(Cc2ccccc2)c(Cl)c1C(=O)OC(C)C#N (stereo not given)
  Biofilm kill mix: 17.5
Cc1cccc(C)c1NC1=NC(=S)N(c2ccc(C(=O)O)cc2)C12CCCCC2
  Biofilm kill mix: 13.9
O=c1[nH]c2ccc(NC(=S)Nc3ccccc3)cc2[nH]1
  Biofilm kill mix: 7.1
O=C(Cn1cc2c(n1)CCCCC2)NCc1cccs1
  Biofilm kill mix: 16.1
CC(C)(C)OC(=O)NCCCC[C@H](NC(=O)c1[nH]cnc1C(=O)N[C@@H](Cc1ccccc1)C(=O)OC(C)(C)C)C(=O)OC(C)(C)C
  Biofilm kill mix: 9.8
O=C(CSCc1ccc(Cl)cc1)N/N=C/c1c(Cl)cccc1Cl
  Biofilm kill mix: 15.6
COc1ccc(C(=O)c2c[nH]c(C(=O)NCCCn3ccnc3)c2)cc1
  Biofilm kill mix: 16.9
Cc1ccc(S(=O)(=O)N2CCN(c3ccc([N+](=O)[O-])c(NCCN4CCOCC4)c3)CC2)cc1
  Biofilm kill mix: 23.4
O=c1c2cc(Cl)ccc2nc(-c2ccc([N+](=O)[O-])cc2)n1O
  Biofilm kill mix: 15.1
CN(C)CCNC(=O)NC(=O)c1ccc(Cl)cc1
  Biofilm kill mix: 4.2
Cc1nnc(N/N=C/c2c(Cl)cccc2Cl)n1N
  Biofilm kill mix: 2.7

# Compound activity deposited in PubChem BioAssay by PCMD.
